Screening data: PubChem BioAssay, several laboratories
CSC inhib: cancer stem cell inhibition; cancer stem cell-like cells viability, luminescence; inhibition, % at 7.5 µM; actives 1.1% (n = 300,000);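 active = mean at 75% or more and at least half the replicates too; tested in HMLE shEcad cells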;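 note: 0% = median of negative and 100% = median of positive control wells; the first replicate is given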
Rce1 inh: inhibitors of yeast Ras-converting enzyme; Q03530; yeast membranes, quenched prenylated peptide cleavage fluorescence; calls only; actives 0.27% (n = 290,000); AID 2563;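 active = fall in fluorescence gain of 50% or more versus controls, with final raw signal at or below 3038400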;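 note: plate controls were neutral control wells for no effect and wells lacking membranes for full effect; tested at 10 µM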
MT1-MMP act inh: blocks activation of human MT1-MMP | HT1080 RFP-PRO-GFP cells, GFP/RFP ratio fluorescence, overnight; percent of plate control window, DMSO zero | GFP/RFP ratio change, % at 20 µM | P50281 | AID 651647 | actives 0.061% (n = 360,000);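 active = GFP/RFP ratio change of at least 30% with cell ATP level not reduced by more than half and red fluorescence within 50% of control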; note: strong numbers were not always called active
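Assay system: HT1080 RFP-PRO-GFP cells. Benchmarks: DMSO vehicle wells and RFP-L50D-GFP reporter cell wells. Times: overnight cell settling, then overnight compound exposure, 37 °C, 5% CO2. Compound: 20 µM single dose, 1% DMSO. Read-out basis: GFP/RFP fluorescence ratio.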
Yeast UUG start: yeast start codon fidelity modulation | S. cerevisiae UUG-firefly luciferase reporter, luminescence/redox ratio | activity score, % at 18.7 µM | actives 0.13% (n = 350,000) | AID 602363;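 active = replicate mean at a twofold rise or more, about +100% in these data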;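 note: firefly luciferase made from a UUG start codon reports start codon fidelity; reporter light over untreated wells divided by growth signal over untreated wells; some hits fall short of that in this replicate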
eIF4H inh: inhibitors of RNA binding by human eIF4H. Q15056. eIF4H fluorescence polarization binding assay. inhibition, % at 35 µM. actives 0.94% (n = 290,000). AID 2012;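 active = 50% or more with normal probe brightness, or confirmed in later tests; about a fifth of its hits are not listed in these tables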;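 note: calls also rest on retests at 20 µM and on dose response follow-up; 0% = protein and probe with vehicle and 100% = probe without protein; strong numbers were not always called active; many hits fall short of the cut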
PABP FP inh: blocks human PABP binding to poly(A) RNA | P11940 | fluorescence polarization | inhibition, % at 35 µM | actives 1% (n = 290,000) | AID 2014;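 active = 50% or more with normal probe brightness, or confirmed in later tests; about a fifth of its hits are not listed in these tables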;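 note: calls also rest on retests at 20 µM and on dose response follow-up; controls were probe without protein and protein plus probe with vehicle; some compounds called inactive have numbers as strong as hits; many hits fall short of the cut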
Target sequence (P11940 whole entry, looked up): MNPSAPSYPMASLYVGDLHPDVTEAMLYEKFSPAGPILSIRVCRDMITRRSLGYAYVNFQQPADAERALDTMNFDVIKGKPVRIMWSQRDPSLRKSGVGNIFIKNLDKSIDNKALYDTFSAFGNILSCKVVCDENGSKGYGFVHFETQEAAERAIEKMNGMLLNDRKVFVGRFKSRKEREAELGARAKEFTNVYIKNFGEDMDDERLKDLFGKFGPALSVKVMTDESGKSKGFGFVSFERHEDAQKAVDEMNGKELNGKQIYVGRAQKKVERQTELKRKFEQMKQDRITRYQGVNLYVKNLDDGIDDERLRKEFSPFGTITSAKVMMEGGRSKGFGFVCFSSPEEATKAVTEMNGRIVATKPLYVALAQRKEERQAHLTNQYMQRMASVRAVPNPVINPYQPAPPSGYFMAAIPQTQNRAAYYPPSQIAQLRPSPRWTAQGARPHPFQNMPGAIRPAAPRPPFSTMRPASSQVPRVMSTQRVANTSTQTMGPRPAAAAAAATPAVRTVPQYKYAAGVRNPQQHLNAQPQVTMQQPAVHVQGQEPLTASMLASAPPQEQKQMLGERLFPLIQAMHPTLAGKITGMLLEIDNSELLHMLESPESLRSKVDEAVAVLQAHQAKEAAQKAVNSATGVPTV
Env fusion inh: inhibitors of HIV Env-mediated cell fusion. HeLa-JRFL Env/CEM21 cell fusion, luciferase. actives 1.1% (n = 360,000). AID 651610. inhibition, % at 12.3 µM;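 active = mean replicate inhibition score of at least 50 and every replicate individually at or above 50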;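 note: 0% = plate neutral controls and 100% = maraviroc near 300 nM; one replicate is shown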
MT1-MMP act inh RFP: also measured in MT1-MMP act inh; calls as there; RFP signal change, %; measured here: RFP expression control read;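 0 = vehicle wells; hits needed this value within 50% of zero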
Starred values were filed as active, the others as inactive; i = inactive; . = not tested or not shown; & = joins results of further samples; ! = not active in a repeat.

Values run as follows: CSC inhib, Rce1 inh, MT1-MMP act inh, MT1-MMP act inh RFP, Yeast UUG start, eIF4H inh, PABP FP inh, Env fusion inh
- COc1cc(NS(=O)(=O)c2ccc(N=Cc3c(C)[nH]n(-c4ccccc4)c3=O)cc2)nc(OC)n1
    -7.1, i, 4.9, 4.3, 2.2, -0.5, -7.0, -56.6
- CC(C)C(C)NC(=O)CN1C(=O)NC(C)(c2ccc3ccccc3c2)C1=O (stereo not given)
    -10.5, i, 5.3, 4.2, -15.9, -1.0, 0.5, 8.3
- CC(C)OC(=O)CSc1nnc(-c2ccccn2)n1C
    -7.0, i, 7.6, 3.6, -14.1, 0.5, 1.2, -60.6
- N#Cc1ccccc1S(=O)(=O)N1CCN(Cc2cc3c(cc2Br)OCCO3)CC1
    ., ., -0.6, 2.1, -4.5, ., ., 8.0
- COc1ccccc1OCC(=O)Nc1ccc(CSc2ccccc2)cc1C
    26.2, i, 0.3, -8.2, -8.7, -4.5, -4.9, 18.8
- O=C(COC(=O)c1ccccc1[N+](=O)[O-])c1ccc(C2CCCCC2)cc1
    -1.3, i, 8.5, -11.6, -64.0, -9.1, 4.2, .
- CCN(Cc1ccccc1)S(=O)(=O)c1ccccc1Br
    ., ., 4.6, 1.8, 7.0, ., ., 6.1
- COc1ccc(CCN(C)C(=O)CSc2nnc(-c3ccco3)o2)cc1OC
    -2.7, i, 1.0, -0.4, -4.0, -3.4, -9.1, 12.4
- CCC(C)CN1CCC(CO)(Cc2ccccc2Cl)CC1 (stereo not given)
    1.7, i, 0.3, 1.4, -7.5, -8.6, -12.9, 1.3
- CN(C)C(=O)c1ccc(-n2cccn2)nc1
    -18.6, i, -1.2, -0.1, ., -6.5, 4.3, -3.2
- CCOc1ccc(CC(=O)Nc2sc(Cc3ccccc3)c(C)c2C(N)=O)cc1OCC
    12.8, i, -14.3, -1.2, -17.2, -1.2, 3.5, -27.8
- O=C(NCCC1CCCCN1S(=O)(=O)c1ccc(Cl)cc1)C(=O)NCc1ccncc1 (stereo not given)
    23.7, i, -7.2, -7.8, -12.0, ., ., .
- CCc1ccc(C2CC(c3ccccc3)n3ncnc3N2)cc1 (stereo not given)
    14.9, i, 0.1, -5.6, -11.7, 1.7, 4.2, -64.5
- CCOc1cc(C(=O)Nc2ccc(N3CCOCC3)cc2)cc(Br)c1OC
    9.3, i, -8.8, -11.0, -17.3, 0.4, -4.2, 2.7
- CCOc1ccc2oc(C(=O)OCC(=O)NC(=O)NC)c(C)c2c1
    -7.1, i, 0.3, 1.4, -16.8, -14.8, -3.6, -11.9
- CCOC(=O)N1CCN(C(=O)c2c(-c3ccccc3Cl)noc2C)CC1
    -4.3, i, -0.7, 0.8, -8.9, -4.1, 12.5, -3.6
- O=C(Cc1cc(=O)[nH][nH]1)N/N=C/C=C/c1ccccc1
    23.9&6.9, i, -1.5, 1.6, -5.7, 21.4&8.4, -9.4&2.5, .
- COc1ccc(-c2noc(N3CCC(C(=O)N(C)c4ccccc4C)CC3)n2)cc1
    8.2, i, -1.0, -8.7, -2.8, -2.6, 6.5, 31.8
- Cc1cccc(N(CC(=O)NC2CCCC2)C(=O)CCC(=O)Nc2nc(C)cs2)c1
    -5.4, i, -0.7, -0.6, 1.1, -3.1, 5.8, 0.0
- CN(CC(=O)N1CCCC1)S(=O)(=O)c1cc(Cl)ccc1Cl
    ., i, 2.7, -1.9, -0.9, 2.3, -6.5, -53.5
- CN(C)S(=O)(=O)c1cc(C(=O)NCC2CCCO2)c(Cl)cc1Cl (stereo not given)
    ., i, -1.2, 1.6, -14.5, -2.9, -11.3, 5.7
- CN(C)C(=O)CN1CCN(Cc2nc(CC3CC3)no2)CC1
    -13.4, i, -0.5, -0.5, 8.7, 4.6, -5.3, 1.5
- O=c1cc2ncc(-n3cc([N+](=O)[O-])cn3)cn2[nH]1
    -9.5, i, -0.6, 1.7, ., -2.6, 6.7, 13.2
- S=C(NCCc1ccccc1)Nc1ccc(N2CCCCC2)cc1
    -4.3, i, 6.2, 3.6, -26.0, -11.5, 3.2, -5.0
- O=C(O)CC12CC3CC(C1)CC(n1ncc(NCc4ccco4)c(Cl)c1=O)(C3)C2
    -8.8, i, 4.2, 2.6, ., -3.3, 2.9, -32.5
- CC(=O)c1cc2c(cc1NC(=O)CSc1ccc(S(=O)(=O)N(C)C)cn1)OCO2
    ., ., -1.3, -10.0, 1.3, ., ., -7.1
- CCOc1ccc(C2=CC(=O)C[C@H](c3ccc(OC)cc3)C2)cc1
    -10.8, ., 1.0, -3.0, -2.6, ., ., -48.7
- O=C(NN=Cc1c(O)ccc2ccccc12)C1CC1
    ., ., -8.6, -9.0, -21.1, ., ., 21.3
- CCOC(=O)[C@@H]1[C@H]2COc3cc(OC)ccc3[C@@H]2N2C(=O)N(c3ccccc3)C(=O)[C@]12C
    -15.7, ., -2.7, 3.3, 6.1, ., ., -5.8
- O=C(N/C=N/OCc1cccc(C(F)(F)F)c1)N1OC[C@@H]2COc3ccc4ccccc4c3[C@@H]21
    22.6, i, 1.9, -2.4, -3.0, -1.3, 0.5, .

Single records, from the list above:
Profile of `O=c1cc2ncc(-n3cc([N+](=O)[O-])cn3)cn2[nH]1` = CSC inhib: -9.5; Rce1 inh: i; MT1-MMP act inh: -0.6; MT1-MMP act inh RFP: 1.7; Yeast UUG start: .; eIF4H inh: -2.6; PABP FP inh: 6.7; Env fusion inh: 13.2
Profile of `O=C(NN=Cc1c(O)ccc2ccccc12)C1CC1` = CSC inhib: .; Rce1 inh: .; MT1-MMP act inh: -8.6; MT1-MMP act inh RFP: -9.0; Yeast UUG start: -21.1; eIF4H inh: .; PABP FP inh: .; Env fusion inh: 21.3

Other structures:
Values run as follows: CSC inhib, Rce1 inh, MT1-MMP act inh, MT1-MMP act inh RFP, Yeast UUG start, eIF4H inh, PABP FP inh, Env fusion inh
- CCCOc1ccc(C(CC(=O)O)NC(=O)CC(c2ccccc2)c2ccccc2)cc1 (stereo not given)
    0.2, i, 2.8, 4.6, ., -5.6, 0.8, 17.0
- COc1ccc(C#Cc2c(-c3ccccc3)n(C)c3ccccc23)cc1
    ., ., -0.1, -1.9, -6.5, ., ., 15.0
- COc1cc(/C=C/c2ccc3cccc([N+](=O)[O-])c3n2)ccc1OCC#N
    39.1, i, 0.3, 0.4, ., -14.4, -1.7, 7.1
- CCOn1c(=O)c(-c2cccs2)[n+]([O-])c2ccccc21
    10.2, i, 3.3, 3.9, ., 9.0, 4.1, .
- Cc1nn(-c2ccccc2)c(N2CCCC2)c1/C=N/NC(=O)c1cccc(S(=O)(=O)Nc2ccc(Cl)cc2)c1
    -0.9, i, -10.5, -22.8, -13.5, -9.2, -1.3, .
- Cc1ccc(C(c2nnnn2C2CCCCC2)N2CCc3ccccc32)cc1 (stereo not given)
    -7.0, i, -13.8, -8.7, ., -8.9, -8.4, .
- CCCCc1ccc(N/C(N)=N/c2nc(C)cc(C)n2)cc1
    43.7, i, -4.6, -21.5, -15.8, 1.5, 19.1, 13.3
- CC(C)(C)c1ccc(OCCC(=O)NNC(=O)c2ccccc2)cc1
    -10.6, i, -3.0, 2.3, -9.7, ., ., 11.7
- O=C(CCS(=O)(=O)c1ccc(Br)cc1)N1CCN(Cc2ccccc2)CC1
    -17.2, i, 0.6, -2.8, 3.9, -4.1, -9.6, .
- COc1ccc(OC)c(-c2csc(NC(=O)C3=NN(c4ccccc4)C(=O)CC3)n2)c1
    0.6, i, -0.8, -5.6, -14.0, -8.8, 13.3, 0.2
- NNc1nc2cc3c(cc2s1)OCCO3
    9.8, i, -0.9, 0.7, -24.7, 0.1, -6.8, -22.5
- O=C(Nc1ccncc1)c1cccc(S(=O)(=O)N2CCCC2)c1
    -5.0, i, 5.8, -16.9, 11.3, -2.8, -0.5, 2.9
- CCN(CC)CC(O)CN(c1ccccc1)S(=O)(=O)c1ccc2ccccc2c1 (stereo not given)
    -2.3, i, 0.0, -2.9, -21.9, -1.4, -9.5, -12.3
- CCCC(=O)N1CCC1(C)C(=O)Nc1ccc(C)c(C)c1 (stereo not given)
    ., ., -0.4, 1.3, -6.9, ., ., -78.3
- CCN(CC)C(=O)c1sc(NC(=O)c2cc(-c3ccc(C)s3)nc3ccccc23)c(C(=O)OC)c1C
    -0.6, i, -1.9, 0.5, ., -1.1, -16.1, .
- O=C(Nc1ccccc1)C1=C[C@@H](C2CC2)C[C@@H](OCCCCO)O1
    -8.9, i, 2.8, 1.4, 1.1, -10.8, 5.1, -81.6
- Cc1cc(Nc2ccccc2)c2c([N+](=O)[O-])cc(C)c(C)c2n1
    25.8, i, -1.3, -8.1, ., 4.9, 1.6, .
- CCOC(=O)C1(CCOc2ccccc2)CCN(Cc2ccc3nonc3c2)CC1
    33.2, i, -2.2, -12.3, ., -1.9, 7.1, 15.5
- COc1ccc(OCC(=O)Nc2cccc(NC(=O)c3ccco3)c2)cc1
    -8.6, i, 2.8, 2.6, ., -11.1, -0.2, 14.9
- COc1cc(/C=C2/C(=O)c3cccc([N+](=O)[O-])c3C2=O)c(Br)cc1O
    42.0, ., -1.6, -8.3, ., 41.0, -5.5, -75.5
- O=C1CCc2cc(S(=O)(=O)N3CCCCC3)cc3c2N1CCC3
    8.8, i, 3.5, 0.7, ., ., ., -0.2
- COc1ccc(CNC(=O)CCNC(=O)N2CC(=O)Nc3ccccc32)cc1
    ., ., 0.8, 4.3, 0.7, ., ., -25.4
- CC1(C)OC(=O)C(=CNc2cccc(O)c2)C(=O)O1
    12.6, i, 3.0, 4.6, -10.0, -2.0, 2.8, .
- CN(CCCNC(=O)c1cc2c(=O)[nH]c3ccccc3c2n1C)Cc1ccccc1
    -8.0, i, 1.0, 0.5, ., -0.4, -7.1, 59.1*
- COc1ccccc1NC(=O)c1nn(-c2ccc(Cl)cc2)ccc1=O
    0.4, i, 2.8, 6.1, -22.0, 7.9, -2.8, .
- Cc1cccc2c1cnn2C(=O)CCC(=O)N1CC(C)CC(C)C1 (stereo not given)
    4.2, i, 2.9, 2.8, 13.3, 4.9, -0.1, 19.8
- COc1ccc(OC)c(CN(CCCN2CCOCC2)S(=O)(=O)c2ccc(NC(C)=O)cc2)c1
    -14.7, i, -2.1, -1.0, -14.9, -7.4, -2.9, -73.0
- COc1ccc(/C(N)=N/OC(=O)c2ccc([N+](=O)[O-])c(C)c2)cc1OC
    -22.9, i, 0.1, 1.6, 5.4, 0.8, -6.9, -6.7
- c1ccc(Cc2noc(CN3CCN(CCOc4ccccc4)CC3)n2)cc1
    8.1, i, -1.5, -2.0, ., 0.0, -3.8, -17.0
- O=C(O)c1cc(-c2ccco2)nc2ccc(Br)cc12
    -2.5&-3.0, i, -9.8&-5.5, 3.6&7.7, -17.5, 87.0*, 92.8*!, .
- COc1cc2[nH]cc(C(=O)NCc3ccccc3)c(=O)c2cc1OC
    13.4, i, 9.4, 0.9, 1.0, -6.9, 3.6, -8.3
- CCN(CC)C(=O)[C@H]1C[C@H](CC(=O)NC(C)(C)C)C(=O)N2CCc3c([nH]c4cc(-c5ccco5)ccc34)[C@]12C
    ., ., -6.1, -5.4, 5.1, ., ., 3.6
